# Assay outcomes deposited in PubChem BioAssay by Fisher Drug Discovery Resource Center.
# NPYLR7 ag: mosquito NPYLR7 agonism | activation, % at 10 µM | 270,000 tested, 0.15% active | HEK293T NPYLR7/Galpha15, GCaMP6s calcium fluorescence; in the data active means activation above about 40%;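 further: 0% = vehicle and 100% = reference agonist at the receptor; some compounds past the cut are filed as inactive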
# NPYLR7 ag max-min: recorded beside NPYLR7 ag, whose call it bears; activation, %; measured here: Max-Min RFU normalised activation; some inactives read as strong as hits;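 span of the calcium signal over five minutes; 0% = vehicle and 100% = native peptide agonist; compound fluorescence can raise it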
# The depositor's hits bear a star; & = joins results of further samples. These rows are one share of the data (hit frequency here may not be typical).
No.	SMILES	NPYLR7 ag	NPYLR7 ag max-min
1	O=C(NCN1CCCC1)c1cnccn1	5	2
2	Cc1ccc(N=C2NN=C(c3ccc(NS(C)(=O)=O)cc3)CS2)cc1	3	1
3	CCn1c(SCC(=O)Nc2ccccc2OC)nc2c(-c3ccccc3)c[nH]c2c1=O	3	-2
4	COCCN(Cc1cccs1)C(=O)c1ccc(=O)n(C)c1	-2	-4
5	O=C(c1ccc(F)cc1)N1CCCC(OCc2cc(F)cc(F)c2)C1 (stereo unspecified)	-2	1
6	CCn1c(C2CCCN(Cc3ccc(-n4cncn4)cc3)C2)nn(C)c1=O (stereo unspecified)	-4	-7
7	CCOC(=O)NCc1ccc2c(c1)cc(C)n2C	13	12
8	CCS(=O)(=O)N1CCN(C(=O)Nc2cc(C)ccc2F)CC1	-5	-6
9	CCC(=O)N1CCN(c2nc(C)nc(C)c2Cc2cc(C)ccc2C)CC1	28	40
10	Cc1cc(C(C)(C)C)cc(C)c1S(=O)(=O)Nc1cc(S(C)(=O)=O)ccc1F	13	5
11	NC(=O)c1cncc(N2CCC(CO)(Cc3ccccc3)CC2)n1	0	-1
12	CC(C)OCc1ccccc1CN	2	2
13	COc1ccc(/C=C/C(=O)N2CCC[C@@H]3CN(Cc4cccs4)CC[C@H]32)cc1OC	29	18
14	c1csc(CNC23CC4CC(CC(C4)C2)C3)c1	-4&-1	-3&-3
15	Cc1ccc(C(NC(=O)Nc2cccc([N+](=O)[O-])c2)c2cccs2)cc1 (stereo unspecified)	-1	-4
16	Cc1ccc(N=Cc2c(C)[nH]c3ccccc23)c(O)c1	-10	-12
17	Cc1ccc(CN2CCNC(=O)C2CC(=O)NCCC2=CCCCC2)o1 (stereo unspecified)	-3	-4
18	Cc1ccc(Oc2nc3ccccn3c(=O)c2/C=C(\C#N)C(N)=O)c(C)c1	7	9
19	CN(CC(=O)NCCSCc1ccccc1)C1CCS(=O)(=O)C1 (stereo unspecified)	0	-13
20	CCOc1ncccc1C(=O)NCC1Cc2ccccc2O1 (stereo unspecified)	-2	-3
21	O=[N+]([O-])c1ccc(CN2CCCn3cccc3C2c2cc(F)c(F)cc2F)cc1 (stereo unspecified)	18	22
22	CCN=c1scc(-c2ccc3c(c2)OCCO3)n1N=Cc1cc(C)ccc1C	2	2
23	CNC(=O)c1c(Cl)nc(Cl)n1-c1ccc(OC)cc1	0&0	2&-2
24	OC(Cc1ccccc1)CN(Cc1ccccc1)C1CC1 (stereo unspecified)	20	21

# Reformatted: results already given
# Screens in order: NPYLR7 ag, NPYLR7 ag max-min
13) COc1ccc(/C=C/C(=O)N2CCC[C@@H]3CN(Cc4cccs4)CC[C@H]32)cc1OC
 : 29, 18
14) c1csc(CNC23CC4CC(CC(C4)C2)C3)c1
 : -4&-1, -3&-3
15) Cc1ccc(C(NC(=O)Nc2cccc([N+](=O)[O-])c2)c2cccs2)cc1 (stereo unspecified)
 : -1, -4
16) Cc1ccc(N=Cc2c(C)[nH]c3ccccc23)c(O)c1
 : -10, -12
17) Cc1ccc(CN2CCNC(=O)C2CC(=O)NCCC2=CCCCC2)o1 (stereo unspecified)
 : -3, -4
18) Cc1ccc(Oc2nc3ccccn3c(=O)c2/C=C(\C#N)C(N)=O)c(C)c1
 : 7, 9

# (cont.)
No.	SMILES	NPYLR7 ag	NPYLR7 ag max-min
25	CN(Cc1ccccc1)C(=O)NCc1ccccc1S(=O)(=O)N1CCCCC1	4	1
26	CC1CN(c2cc(Cl)nc(SCC(=O)NCc3cccc(C(F)(F)F)c3)n2)CCN1C(=O)c1ccc(F)cc1 (stereo unspecified)	-4	2
27	COc1cc(CSc2cccs2)ccc1S(C)(=O)=O	13	8
28	Cn1nccc1C(=O)N1CCC(N2CCCC(C(=O)NC3CC3)C2)CC1 (stereo unspecified)	-8	-11
29	CCC(=O)N1c2ccccc2N=C2CC(C)(C)CC(=O)C2C1c1cc(OC)c(OC)c(OC)c1 (stereo unspecified)	-7	-18
30	COC(=O)c1ccc(C2CCN(C(=O)CN3C(=O)C4SCCN4C(=O)c4ccccc43)CC2)cc1 (stereo unspecified)	-1	10
31	CCN(c1ccccc1)S(=O)(=O)c1ccc2c(c1)CC(=O)N2C	3	0
32	CCC(=O)N1c2cccc3c2[C@@H](C[C@H]1C(=O)O)CN(Cc1ccc(OC)cc1)C3=O	0	5
33	Cc1ccc(OC2CCN(Cc3ccncc3)CC2)c(C(=O)NCc2cccs2)c1	11	1
34	CCCc1noc(CN(C)C(=O)c2[nH]c3ccc(C)cc3c2C)n1	1	2
35	O=[N+]([O-])c1ccc(C23CC4CC(CC(C4)C2)C3)cc1	-4	-8
36	CCOC(=O)CCC(=O)N1CCC(n2nc(C(=O)OCC)cc2C(C)(C)C)CC1	17	7

# Pulled by compound from the entries so far, 3 records:
No.	SMILES	NPYLR7 ag	NPYLR7 ag max-min
33	Cc1ccc(OC2CCN(Cc3ccncc3)CC2)c(C(=O)NCc2cccs2)c1	11	1
29	CCC(=O)N1c2ccccc2N=C2CC(C)(C)CC(=O)C2C1c1cc(OC)c(OC)c(OC)c1 (stereo unspecified)	-7	-18
35	O=[N+]([O-])c1ccc(C23CC4CC(CC(C4)C2)C3)cc1	-4	-8

# New compounds follow
No.	SMILES	NPYLR7 ag	NPYLR7 ag max-min
37	c1cc(N2CCCCC2)ccc1-c1noc(Cn2cnnn2)n1	0	-2
38	O=C(CCc1nc2ccccc2c(=O)[nH]1)NCCCOc1ccccc1	1	-1
39	COc1ccc(C(N)=O)cc1-c1ccc(-n2cccn2)cc1	12	11
40	CNC(=O)c1ccc(CN(C(=O)c2ccc(S(C)(=O)=O)cc2)C2CC2)cc1	2	1
41	COc1cccc(CNC(=O)c2c(C)noc2-c2ccccc2OC)c1	0	7
42	CCN1CCN(C(=O)c2cc3c(=O)n4cccc(C)c4nc3n2C)CC1	6	11
43	COc1ccc(CC2=NOC(CNC(=O)c3csc(Cc4ccccc4)n3)C2)cc1 (stereo unspecified)	-2	-7
44	CC1Cc2ccccc2N1C(=O)C(=O)NCCc1nccn1C(F)F (stereo unspecified)	2	-1
45	COCCCN(Cc1csc(COc2ccc(Cl)cc2)n1)C(=O)c1cccc(OC)c1	-7	-1
46	CC(=O)N(CCn1nc(C)cc1C)c1nc2ccccc2s1	-18	-23
47	CC(C)CNC(=O)[C@@]1(OCc2cccc(Cl)c2)CC(OCc2cccc(Cl)c2)[C@H](O)[C@H](O)C1 (stereo partly specified)	6	6
48	COc1cc2c(cc1OC)S(=O)(=O)N(CC(=O)C(C)(C)C)C2=O	-1	-2
49	Cc1ccc(CCCNC(=O)c2ccccc2OC(F)F)c(C)c1	-2	-4
50	O=C1NC(C(=O)NCc2cc3cc(F)ccc3s2)CS1 (stereo unspecified)	9	9
51	O=C(NCc1ccccc1Cl)c1cc(-c2ccc(F)cc2)nc2ccccc12	-19	-23
52	CC(NC(=O)C(Cc1ccccc1)NC(=O)c1ccc(Cl)cc1)C1CCCO1 (stereo unspecified)	11	2
53	N#Cc1cnc(Nc2ccc(O)c(CN3CCOCC3)c2)c(Cl)c1	1	1
54	Cc1occc1-c1nnc(SC(C)C(=O)N(Cc2ccccc2)Cc2ccccc2)n1C (stereo unspecified)	-1	9
55	C=Cc1ccc(CN2C(=O)C(C)ON=C2c2ccco2)cc1 (stereo unspecified)	0	-1
56	C=C(C)CN(C)Cc1ccc(C(=O)Nc2ncccc2C)cc1	16	3
57	COc1cccc(C2CCN(c3ncnc4c3CCNC4)C2)c1OC (stereo unspecified)	12	8
58	CS(=O)(=O)c1cccc(C(=O)Nc2ccc3c(c2)Cc2ccccc2-3)c1	12	15
59	Cc1n[nH]c(=O)n1-c1cccc(C(=O)O)c1	15	9
60	CC(OC(=O)c1cc2ccccc2o1)C(=O)N(C)C1CCCCC1 (stereo unspecified)	-1	-5
61	Cc1nn(-c2ccc(F)cc2)c2nc(Cc3ccccc3)nc(N3CCCN(C(=O)CSc4ccccc4)CC3)c12	-6	7
62	CCOc1ccc2ccccc2c1C(=O)NCc1nnnn1-c1ccc(C)cc1	-6	-2
63	Cc1cc(C)n2nc(C(=O)NC3CCCN(C4Cc5ccccc5C4)C3)cc2n1 (stereo unspecified)	4	-4
64	NC(=O)CCN(C(=O)c1ccc(F)cc1F)c1ccc(F)cc1	3	5
65	CCn1cc(C(CC(=O)O)c2cccc(C)c2)c2ccccc21 (stereo unspecified)	-1	11
66	COc1ccc2oc(=O)c(C(=O)N3CCN(c4ccccc4F)CC3)cc2c1	14	11
67	COC(=O)c1ccc(NC(=O)c2ccc(S(=O)(=O)N3CCCCC3C)cc2)s1 (stereo unspecified)	18	10
68	COC(=O)c1ccc2oc(=O)n(C3CCN(C(=O)c4ccno4)CC3)c2c1	-9	1
69	C#CCOCC(O)CN(CCOC)Cc1cccc(OC)c1 (stereo unspecified)	16	18
70	O=S(=O)(c1ccc2c(c1)nc(SCc1c(F)ccc(F)c1Cl)n2CC1CCCO1)N1CCOCC1 (stereo unspecified)	-8	-18
71	Cc1cccc(N/C=C/C(=O)C(F)(F)F)c1	5	2
72	COc1ccc(CNC(=O)c2c(C)noc2-c2ccncc2)cc1	-1	7
73	COc1ccc2cc(-c3[nH]ncc3CN3CCC(c4ccncc4)CC3)ccc2c1	0	-2
74	CN(Cc1nc(-c2ccccn2)no1)CC1(c2ccccc2)CC1(C)C (stereo unspecified)	8	-2
75	Cc1cnccc1N1CCCN(C(=O)c2cnn3ccn(C)c23)CC1	4	-3
76	C=C(C)COc1ccc(C(=O)N2CC[C@H](O)C[C@@H]2C(=O)O)cc1	16	1
77	COCCNC(=O)CCC1CCN(Cc2c(F)cccc2Cl)CC1	11	7
78	Cc1ccc2oc(C(=O)N(C)Cc3cccc4cnccc34)c(C)c2c1	6	5
79	COc1ccc(S(=O)(=O)N(Cc2ccc(OC)c(OCc3nc(CO)cs3)c2)C(C)C)cc1	18	12
80	CCOC(=O)c1cccnc1N1CCN(Cc2cncnc2)CC1	7	3
81	COCCNCc1c(-c2ccccc2)noc1N(C)C1CCCCC1	2	-3
82	CCCC1=NN(C(C)=O)C(C(=O)NC(C)CCCC(C)(C)O)O1 (stereo unspecified)	10	2
83	CCCCN(CC(=O)N(CCc1ccc(OC)c(OC)c1)Cc1ccc(C)s1)C(=O)c1ccc(Br)cc1	18	22
84	COc1cn(CC(=O)NCc2ccccc2Cl)c(CO)cc1=O	5	4
85	Cc1ccc(C)c(C2=NN(C(=O)CN3CCc4ccccc4C3)C(c3ccc4c(c3)OCO4)C2)c1 (stereo unspecified)	3	-2
86	COc1c(C)cc(C(=O)C2CCCN(Cc3cnc(SC)nc3)C2)cc1C (stereo unspecified)	-7	-11
87	COc1ccc(C2=C/C(=C3\c4ccccc4-c4ncccc43)C(=O)O2)c(OC)c1	14	0
88	Cc1cccc(NC(=O)CSc2ccc3nnc(CCNC(=O)c4ccccc4)n3n2)c1	8	-5
89	CCOc1cccc(/C=C(/C#N)c2nc(C)cs2)c1OC(F)F	8	3
90	O=S(=O)(O)Oc1ccc(C(c2ccc(OS(=O)(=O)O)cc2)c2ccccn2)cc1	5	-5
91	COc1ccc(OCc2nc(C(=O)N3CCC3c3ccc(F)cc3)co2)cc1 (stereo unspecified)	1	-2
92	OC(CNCCc1ccc(Cl)cc1)COCc1ccco1 (stereo unspecified)	-1	-3
93	CC(=O)NC1(C(=O)N2CCN(C3CCCC3O)CC2)CCCCC1 (stereo unspecified)	-9	-13
94	COc1ccc(NC(=O)c2cc(-c3ccc(Br)cc3)nc3ccccc23)cc1	-8	-10
95	c1cc2n(c1)CCNC2	-3	-13
96	CN(/N=C\c1ccccc1)c1nc(-c2cc3c(ccc4ccccc43)oc2=O)cs1	0	-5

# (more compounds)
No.	SMILES	NPYLR7 ag	NPYLR7 ag max-min
97	COCCCN(CC(=O)N(Cc1ccc(F)cc1)Cc1cccs1)C(=O)Cc1ccccc1	-3	7
98	O=C(Nc1ncc(Br)s1)C1CCC(CNc2c(N3CCCC3)c(=O)c2=O)CC1 (stereo unspecified)	4	1
99	O=C(C1C[C@H]1c1ccccc1)N1CCN(c2nccc(-c3ccc(Oc4ccccc4)cc3)n2)CC1 (stereo partly specified)	29	23
100	CSc1ccc(NC(=O)c2ccc(S(=O)(=O)N3CCOCC3)cc2)nn1	-3	-3
101	C#CCNC(=O)C(C)Nc1ccc2c(c1)CCC(=O)N2 (stereo unspecified)	11	8
102	COC(=O)C1=C(C(=O)OC)SC(=C2C(=S)C(C)(C)Nc3cc(C)c(C)cc32)S1	-3	-5
103	COc1cccc(-c2cc(C(=O)NCC(C)C)n3nc(-c4ccccc4)cc3n2)c1	5	12
104	CCc1nc2c(OCC(N)=O)cccn2c1N(C)C(=O)c1cccs1	10	-1
105	Cc1ccc(-c2csc3ncn(CCC(=O)Nc4nncs4)c(=O)c23)cc1	9	5
106	CS(=O)(=O)Nc1ccccc1CNc1cc(C(F)(F)F)ccn1	10	10
107	CCCn1c(SCC(=O)Nc2ccc(S(=O)(=O)N3CCCC3)cc2)n[nH]c1=O	2	-1
108	CNC(=O)[C@H]1C[C@]2(CCCCN(CCOC)C2=O)N(C(=O)NC2CCCC2)[C@H]1c1ccccc1	7	14
109	CN=c1scc(-c2ccc(OC(F)F)cc2)n1N=Cc1ccc(O)cc1	16	9
110	CN1C(=O)NC(c2ccccc2Cl)C2=C1CN(CCC(=O)NCc1cccc(C(F)(F)F)c1)C2=O (stereo unspecified)	-2	2
111	Cc1cc(C)c(C#N)c(SC2CC(C)OC2=O)n1 (stereo unspecified)	-6	-7
112	O=C(Nc1cccc(F)c1)c1cc(S(=O)(=O)N2CCOCC2)ccc1Cl	0	-5
113	CC(=O)Cn1c(CN2CCN(c3cccc(Cl)c3)CC2)nc2c1c(=O)n(C)c(=O)n2C	2	10
114	CCNC(=S)NCC1c2cc(OC)c(OC)cc2CCN1C(=O)NC(C)(C)C (stereo unspecified)	8	19
115	Cc1cccc(CC(=O)N2CCN(c3ncnc4c3nnn4-c3ccccc3)CC2)c1	-2	-10
116	Cc1ccc(CN2C(=O)C(C)Sc3ccc(C#N)cc32)cc1 (stereo unspecified)	4	1
117	CCC(=O)Nc1ccc(N(C)C)c(CN(CCN(C)C)C(=O)c2ccco2)c1	-16	-3
118	CC(C)NC(=O)Cn1nc(-c2ccccc2)c2sc(N3CCCC3)nc2c1=O	-3	-8
